# PABP polyA inh: PABP poly(A) RNA binding inhibitors, primary screen, biochemical, fluorescence polarization, uHTS | Polyadenylate-binding protein 1 (Homo sapiens), P11940 | inhibition, % at 35 µM | actives 1% (n = 290,000) | AID 2014, 2009;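 active = 50% or more with normal probe brightness, or confirmed in later tests; inconclusive = above 50% with abnormal brightness, or retests that disagree; inactive = below 50% or failed in later tests; about a fifth of its hits are not listed in these tables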;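 also: calls also rest on retests at 20 µM and on dose response follow-up; controls were probe without protein and protein plus probe with vehicle; some compounds called inactive have numbers as strong as hits; many hits fall short of the cut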
# Target sequence (P11940 whole entry, looked up): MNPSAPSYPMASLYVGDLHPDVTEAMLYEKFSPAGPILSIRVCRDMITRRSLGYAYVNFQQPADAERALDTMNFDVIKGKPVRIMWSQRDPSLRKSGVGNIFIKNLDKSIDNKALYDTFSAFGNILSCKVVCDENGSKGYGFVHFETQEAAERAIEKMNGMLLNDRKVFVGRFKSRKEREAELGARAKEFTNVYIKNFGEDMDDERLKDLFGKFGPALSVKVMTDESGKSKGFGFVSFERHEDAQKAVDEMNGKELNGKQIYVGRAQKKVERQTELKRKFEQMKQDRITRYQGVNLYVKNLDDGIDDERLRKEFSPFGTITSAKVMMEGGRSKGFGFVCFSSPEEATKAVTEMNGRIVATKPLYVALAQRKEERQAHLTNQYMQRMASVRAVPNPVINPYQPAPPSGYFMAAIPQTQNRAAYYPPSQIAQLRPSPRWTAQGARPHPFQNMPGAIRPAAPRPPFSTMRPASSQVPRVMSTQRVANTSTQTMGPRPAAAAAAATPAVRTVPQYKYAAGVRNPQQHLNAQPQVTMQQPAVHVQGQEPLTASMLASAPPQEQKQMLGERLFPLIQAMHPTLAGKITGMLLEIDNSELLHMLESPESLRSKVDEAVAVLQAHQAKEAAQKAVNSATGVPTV
# CSC inhib: cancer stem cell viability inhibitors, primary screen, luminescence. AID 2717, 2010. actives 1.1% (n = 300,000). inhibition, % at 7.5 µM. cancer stem cell-like cells viability;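 active = mean at 75% or more and at least half the replicates too; inconclusive = mean and replicates disagree; tested in HMLE shEcad cells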;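 also: 0% = median of negative and 100% = median of positive control wells; the first replicate is given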
# Rce1 inh: yeast Rce1p protease inhibitors, primary screen, biochemical, fluorescence, cell-free homogeneous | calls only | AID 2563, 2010 | actives 0.27% (n = 290,000) | yeast membranes, quenched prenylated peptide cleavage fluorescence;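 active = fall in fluorescence gain of 50% or more versus controls, with final raw signal at or below 3038400; inconclusive = same 50% fall but final raw signal above 3038400; inactive = fall in fluorescence gain under 50%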;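 also: plate controls were neutral control wells for no effect and wells lacking membranes for full effect; tested at 10 µM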
# Target sequence (Q03530 whole entry, looked up): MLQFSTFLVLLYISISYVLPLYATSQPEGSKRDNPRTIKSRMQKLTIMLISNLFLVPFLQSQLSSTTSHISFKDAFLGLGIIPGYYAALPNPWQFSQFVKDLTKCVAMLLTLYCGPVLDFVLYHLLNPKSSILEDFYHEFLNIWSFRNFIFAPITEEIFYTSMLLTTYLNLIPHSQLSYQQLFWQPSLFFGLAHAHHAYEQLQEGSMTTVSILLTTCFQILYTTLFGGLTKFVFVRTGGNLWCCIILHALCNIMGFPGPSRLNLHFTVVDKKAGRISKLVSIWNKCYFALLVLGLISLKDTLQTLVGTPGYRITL
# MT1-MMP act inh: blockers of MT1-MMP proenzyme processing, primary screen, HT1080 RFP-PRO-GFP cells, GFP/RFP fluorescence. Matrix metalloproteinase-14 (Homo sapiens), P50281. GFP/RFP ratio fluorescence, overnight; percent of plate control window, DMSO zero. GFP/RFP ratio change, % at 20 µM. actives 0.061% (n = 360,000). AID 651647, 2012;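 active = GFP/RFP ratio change of at least 30% with cell ATP level not reduced by more than half and red fluorescence within 50% of control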; also: strong numbers were not always called active
#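 Compound: 20 µM single dose, 1% DMSO / System: HT1080 RFP-PRO-GFP cells / Controls: DMSO and RFP-L50D-GFP cell wells / Read-out basis: GFP/RFP fluorescence ratio / Schedule: overnight compound exposure at 37 °C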
# Yeast UUG start: modulators of yeast start codon fidelity, primary screen, whole organism, S. cerevisiae, single point, plate reader | actives 0.13% (n = 350,000) | S. cerevisiae UUG-firefly luciferase reporter, luminescence/redox ratio | activity score, % at 18.7 µM;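 active = replicate mean at a twofold rise or more, about +100% in these data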;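 also: firefly luciferase made from a UUG start codon reports start codon fidelity; reporter light over untreated wells divided by growth signal over untreated wells; some hits fall short of that in this replicate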
# HIV Env fusion: inhibitors of HIV-1 Env-driven cell-cell fusion, primary screen, HeLa-JRFL effector, CEM21 target cells, luciferase; inhibition, % at 12.3 µM; actives 1.1% (n = 360,000);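 active = mean replicate inhibition score of at least 50 and every replicate individually at or above 50; inconclusive = only one of the two criteria met; inactive = mean below 50 and not all replicates reaching 50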;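 also: 0% = plate neutral controls and 100% = maraviroc near 300 nM; one replicate is shown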
# eIF4H inh: human eIF4H binding inhibitors, primary screen, translation initiation inhibitor project, biochemical, uHTS, fluorescence polarization | actives 0.94% (n = 290,000) | inhibition, % at 35 µM | eIF4H fluorescence polarization binding assay | Eukaryotic translation initiation factor 4H (Homo sapiens), Q15056;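 active = 50% or more with normal probe brightness, or confirmed in later tests; inconclusive = above 50% with abnormal brightness, or retests that disagree; inactive = below 50% or failed in later tests; about a fifth of its hits are not listed in these tables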;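 also: calls also rest on retests at 20 µM and on dose response follow-up; 0% = protein and probe with vehicle and 100% = probe without protein; strong numbers were not always called active; many hits fall short of the cut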
# eIF4H inh retest: second read-out of eIF4H inh, no call of its own (marks repeat the call); inhibition, %; compound at 20 µM; confirmation average;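 mean of two retest wells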
# PABP polyA inh retest: recorded beside PABP polyA inh, whose call it bears; inhibition, %; compound at 20 µM; confirmation repeats;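 mean of two retest wells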
# MT1-MMP act inh RFP: also measured in MT1-MMP act inh; calls as there; RFP signal change, %; measured here: RFP expression control read;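 0 = vehicle wells; hits needed this value within 50% of zero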
# An asterisk follows results filed as active; i = inactive; ? = inconclusive; / = no result given; + = active, no number. These rows are one share of the data. The share of hits here may be higher or lower than overall.
# The opening 5 entries (preview)
SMILES,PABP polyA inh,CSC inhib,Rce1 inh,MT1-MMP act inh,MT1-MMP act inh RFP,Yeast UUG start,HIV Env fusion,eIF4H inh,others
COc1cc2c(cc1OC)-c1c(OC)c(OC)c(OC)c3ccnc(c13)C2=O,-5,37,i,/,/,/,/,20,
Cc1ccc(C(=O)NC2CC3CCC(C2)N3)cc1 (centres undefined),-3,-4,i,-1,4,/,3,6,
COc1ccc2c(c1)c(CCN)c(C)n2Cc1ccccc1,-15,8,i,-2,1,-1,7,-12,
O=C(c1csc2c1CCCCC2)N1CCC2(CC1)OCCO2,4,-4,i,-1,0,-14,/,1,
COc1ccc2c(c1OC)CN1CCc3cc4c(cc3C1C2)OCO4 (centres undefined),7,-4,i,-5,-18,9,-13,4,

# The listing, from the first entry:
SMILES,PABP polyA inh,CSC inhib,Rce1 inh,MT1-MMP act inh,MT1-MMP act inh RFP,Yeast UUG start,HIV Env fusion,eIF4H inh,others
COc1cc2c(cc1OC)-c1c(OC)c(OC)c(OC)c3ccnc(c13)C2=O,-5,37,i,/,/,/,/,20,
Cc1ccc(C(=O)NC2CC3CCC(C2)N3)cc1 (centres undefined),-3,-4,i,-1,4,/,3,6,
COc1ccc2c(c1)c(CCN)c(C)n2Cc1ccccc1,-15,8,i,-2,1,-1,7,-12,
O=C(c1csc2c1CCCCC2)N1CCC2(CC1)OCCO2,4,-4,i,-1,0,-14,/,1,
COc1ccc2c(c1OC)CN1CCc3cc4c(cc3C1C2)OCO4 (centres undefined),7,-4,i,-5,-18,9,-13,4,
COC(=O)C1=C(c2ccc(S(C)(=O)=O)cc2)C[C@@H]2CC[C@H]1N2C(=O)NCc1ccc(C(F)(F)F)cc1,/,9,i,-8,1,14,-23,/,
CC(C)c1ccc(N2C(=O)NC(=O)/C(=C\C=C\c3ccco3)C2=O)cc1,1,99*,i,/,/,/,-213,?,
Cc1cc(/C=C2\C(=O)NC(=O)N(Cc3ccccc3)C2=O)c(C)n1-c1ccc(Cl)c(C(=O)O)c1,-4,-3,i,-9,11,/,/,?,
O=C(CCCn1c(=O)[nH]c2cc(Cl)ccc2c1=O)N1CCC2(CC1)OCCO2,-4,-17,i,-2,6,/,/,-2,
COC(=O)C1=C(c2cc3ccccc3o2)C[C@@H]2CC[C@H]1N2C(=O)N1CCCCC1,/,72,i,5,-19,7,-56,/,
CCOC(=O)[C@]12Cc3ccsc3[C@H]1N(Cc1ccccc1)C(=O)c1ccccc12,/,/,/,-6,-7,-2,41,/,
O=c1[nH]c2ccccc2n1C1CCN(C(c2ccccc2)c2nnnn2Cc2ccccc2)CC1 (centres undefined),/,/,/,-14,-8,-15,3,/,
O=C(c1cccs1)c1cn(Cc2ccccc2Cl)c2ccccc12,-1,/,i,3,-4,1,23,-16,
Cc1ccc(N2C(=O)NC(=O)/C(=C\c3cccn3C(C)(C)C)C2=O)cc1,51,-8,i,-9,4,/,3,103,eIF4H inh retest=16;PABP polyA inh retest=19
CC12C=CC(=O)CC1CCC1C2CCC2(C)C(O)C(O)CC12 (centres undefined),/,/,/,2,-4,-5,11,/,

# Looked up one by one from the list above, two records:
SMILES,PABP polyA inh,CSC inhib,Rce1 inh,MT1-MMP act inh,MT1-MMP act inh RFP,Yeast UUG start,HIV Env fusion,eIF4H inh,others
COC(=O)C1=C(c2ccc(S(C)(=O)=O)cc2)C[C@@H]2CC[C@H]1N2C(=O)NCc1ccc(C(F)(F)F)cc1,/,9,i,-8,1,14,-23,/,
CCOC(=O)[C@]12Cc3ccsc3[C@H]1N(Cc1ccccc1)C(=O)c1ccccc12,/,/,/,-6,-7,-2,41,/,

# Further entries follow:
SMILES,PABP polyA inh,CSC inhib,Rce1 inh,MT1-MMP act inh,MT1-MMP act inh RFP,Yeast UUG start,HIV Env fusion,eIF4H inh,others
CC12CN3CCN(C1)CC(C)(C3)C2=NO,2,4,i,-3,1,-14,-25,1,
COc1cc(/C=C2\C(=O)NC(=O)N(c3ccccc3)C2=O)cc(OC)c1OC,-2,-2,i,-3,2,0,/,-11,
CN1CSC(=S)N(C)C1,-1,-4,i,-2,3,-12,/,8,
CC(C)(C)P(=O)(N1CCOCC1)N1CCOCC1,-9,6,i,-3,0,-10,-5,-8,
C/C(O)=C(\C#N)C(=O)Nc1cc(Br)ccc1Br,/,-3,/,2,3,-12,-3,/,
Cc1ccc(S(=O)(=O)NC(Cc2cnc[nH]2)C(=O)O)cc1 (centres undefined),-5,-10,i,4,1,/,-2,-7,
CCCNC(=O)Cn1cnc2sc(C(=O)N3CCC4(CC3)OCCO4)c(C)c2c1=O,-1,-9,i,-1,2,-5,-3,-11,
O=C(CCc1ccccc1)N1Cc2cc(N3CCOCC3)ccc2-n2nncc2C1,/,/,/,2,9,-15,-21,/,
CC(=NCCCN1CCCCC1)c1c(O)n(Cc2ccccc2)c(=O)[nH]c1=O,-4,-9,i,7,2,/,-8,-8,
Nc1ccccc1C(=O)OCc1ccc([N+](=O)[O-])cc1,3,15,i,-2,-4,-7,-7,7,
Cc1cc(C(=O)OC(C)C(=O)Nc2ccccc2)c(C)n1C1CC1 (centres undefined),/,/,/,-5,-2,-9,i,/,
CN1CCN(c2ncnc3nc[nH]c23)CC1,-17,-17,i,3,5,/,5,-4,
CCCCn1c(=O)c(C(=O)Nc2nnc(C(C)C)s2)c(O)c2ccccc21,-7,27,i,/,/,/,/,6,
CCN(CC)c1ccc(N=Cc2c(O)[nH]c(=O)[nH]c2=O)cc1,-6,27,i,-33,3,-10,24,0,
O=c1[nH]c2ccccc2n1C1CCN(C(CCc2ccccc2)c2nnnn2-c2ccc3c(c2)OCCO3)CC1 (centres undefined),/,/,/,-26,-27,1,38,/,
Cc1ccc(-c2cc(-c3ccccc3)cc(-c3ccccc3)[n+]2-c2ccccc2)cc1,/,25,+,3,-29,-7,23,/,
CC(C)n1c(=O)c(C=Nc2cccc([N+](=O)[O-])c2)c(O)n(CCc2ccccc2)c1=O,-1,-2,i,-47,1,/,11,1,
COc1ccccc1N1CCN(Cc2cnc(-c3ccccc3)[nH]2)CC1,-13,-4,i,1,0,/,-11,1,
CCCCC/C(=N\O)c1c[nH]c2ccccc12,8,/,i,-3,-1,-11,/,4,
CCCNC(=O)c1c(N)n(Cc2ccco2)c2nc3ccccc3nc12,119,6,i,/,/,/,/,125,eIF4H inh retest=0;PABP polyA inh retest=12
C=CCn1c(O)c(C(CC)=NCCN2CCN(C(=S)NC)CC2)c(=O)[nH]c1=O,1,-5,i,5,3,/,9,7,
CCOC(=O)CNC(=O)N1Cc2cc(-c3ccccc3)ccc2-n2nncc2C1,/,/,/,5,9,-5,-1,/,
COC(=O)C(O)(c1ccc(NC(=S)NC(=O)c2ccc(Cl)cc2Cl)c(C)c1)C(F)(F)F (centres undefined),-9,/,i,-4,-18,-19,18,-12,
COC(=O)c1c(N)n(Cc2ccc(OC)cc2)c2nc3ccccc3nc12,6,/,/,-7,-2,8,/,1,
COC(=O)C1=C(c2ccc(OC)c(OC)c2)C[C@@H]2CC[C@H]1N2C(=O)NCCNC(C)=O,/,-24,/,-1,3,-10,-2,/,
COc1ccc(CC(=O)Nc2ccc3c(C(F)(F)F)cc(=O)oc3c2)cc1OC,-4,-5,i,-3,1,/,0,6,
O=C(Cn1ncc2c3ccccc3n(Cc3cccc(Cl)c3)c2c1=O)N1CCC2(CC1)OCCO2,45*,-21,i,-2,-7,10,/,73*,eIF4H inh retest=85*;PABP polyA inh retest=82*
CN(C)c1cccc(CN2CCN(c3ccccc3)CC2)c1,/,/,/,3,3,-10,1,/,
CN(C)C(=O)OCc1n(C)cc[n+]1C,9,-6,i,0,-1,/,/,-1,
NC(=O)Cn1cc(C(=O)c2ccccc2)c2ccccc21,-6,-4,i,0,2,-14,-14,-1,
CC1C(c2cccs2)=[N+]([O-])C(C)(C(=O)c2ccc(F)cc2)N1O (centres undefined),/,2,i,3,2,10,/,/,
O=C1NCN(c2ccccc2)C12CCN(C(c1ccccc1)c1nnnn1C1CCCC1)CC2 (centres undefined),/,/,/,-1,-3,-1,-273,/,
CCOC(=O)C1=C(N)OC(C)=C(C(=O)OCCOC)C12C(=O)Nc1ccccc12 (centres undefined),6,-1,i,7,2,-9,-33,16,
O=[N+]([O-])c1cc(S(=O)(=O)c2ccc(O)c([N+](=O)[O-])c2)ccc1O,2,12,i,5,6,/,-6,95,eIF4H inh retest=49;PABP polyA inh retest=22
CN(C)/C=C(\C=[N+](C)C)c1[nH]ncc1[N+](=O)[O-],-4,-8,i,0,0,-6,-17,-5,
c1ccc2c(CCNC3=NCCC3)c[nH]c2c1,0,-15,i,-1,1,-19,/,-3,
O=C(Cn1cc(C(=O)c2ccccc2F)c2ccccc21)NCc1ccco1,-4,9,i,-1,-2,-24,-12,-8,
Cc1cc(/C=C2\C(=O)NC(=O)N(c3ccccc3F)C2=O)c(C)n1-c1cc(C(=O)O)cc(C(=O)O)c1,47*,0,i,-12,2,-9,17,65,eIF4H inh retest=45;PABP polyA inh retest=69*
O=C(c1ccc(C(F)(F)F)cc1)C1CCCN(Cc2ccc(CO)o2)C1 (centres undefined),2,8,i,0,-1,0,19,-2,
CC(C)N1CC=C(c2c[nH]c3ccccc23)CC1,-1,-8,i,-4,-7,-8,/,-1,
COc1cccc(CNCCc2c[nH]c3ccccc23)c1,5,16,i,4,4,8,25,8,
C=CCn1c(O)c(C(C)=Nc2ccc(N(CC)CC)cc2)c(=O)[nH]c1=O,-4,45,i,9,17,-18,-328,-2,
O=c1c2ccccc2[se]n1-c1ccccc1,7,/,i,-9,-1,-23,-6,-2,
O=C(C1CCCN(S(=O)(=O)c2cccc3nsnc23)C1)N1CCC2(CC1)OCCO2 (centres undefined),-2,/,/,/,/,/,11,4,
CC1CCC(NCC(O)c2ccccc2)CC1 (centres undefined),0,-3,i,-4,1,-16,-30,4,
COC(=O)C1=C(c2ccc(F)cc2OCc2ccccc2)C[C@@H]2CC[C@H]1N2C(=O)NCc1cccc(C(F)(F)F)c1,/,19,/,-9,-9,-23,20,/,
CCOP(=O)(OCC)Oc1cc(C)c(N(C)C)c(C)c1,9,-7,i,-3,0,-13,10,17,
CC(=O)C1CCC2(O)C3CCC4=CC(=O)CCC4(C)C3CCC12C (centres undefined),/,/,/,2,4,-2,-6,/,
CC12CN3CCN(CC(C3)/C1=N/NC(N)=O)C2,-2,-16,i,-3,1,/,-11,-5,
COc1cc(C(=O)N2Cc3ccccc3-n3nncc3C2)cc(OC)c1OC,/,/,/,-1,3,12,8,/,

# Structures from the list above containing a tert-butyl group (two):
SMILES,PABP polyA inh,CSC inhib,Rce1 inh,MT1-MMP act inh,MT1-MMP act inh RFP,Yeast UUG start,HIV Env fusion,eIF4H inh,others
Cc1ccc(N2C(=O)NC(=O)/C(=C\c3cccn3C(C)(C)C)C2=O)cc1,51,-8,i,-9,4,/,3,103,eIF4H inh retest=16;PABP polyA inh retest=19
CC(C)(C)P(=O)(N1CCOCC1)N1CCOCC1,-9,6,i,-3,0,-10,-5,-8,
